# fixLJ activator = activators of Burkholderia fixLJ two-component system; z-score (test concentration not listed); B. multivorans fixK-promoter GFP reporter, 18 h; hits give high values; actives 0.3% (n = 29,000); AID 1918990;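 active = replicate mean overnight rise in green fluorescent reporter signal, 3 or more SD over negative controls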;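 also: score is relative to vehicle wells of the plate; 300 nL library stock went into each well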
# An asterisk follows results filed as active; & = joins results of further samples. These rows are one share of the data; rates above refer to the full screens.
SMILES,fixLJ activator
O=C(NCCCc1ccc(O)cc1)N1CC[C@@]2(O)CCCC[C@@H]2C1,-0.1
COc1ccc(OCC(O)Cn2c(NCCO)nc3c2c(=O)n(C)c(=O)n3C)cc1 (stereo not drawn),-1.5
CCNC(=O)C1CC(N)CN1C(=O)c1cccc(-n2nc(C)cc2C)c1 (stereo not drawn),0.57
CCC1CCCCN1C(=O)c1nn(-c2ccc(OC)cc2)c(=O)c2c1c1ccccc1n2C (stereo not drawn),0
Cc1cccc(C)c1OCc1cc(=O)n2c(-c3ccccc3)csc2n1,-0.05
CCc1cc2c(cc3c(=O)n(CC(=O)NC4CCCCC4)ncn32)s1,-1.1
Cc1ccccc1C1C(C(=O)N2CCC(c3ccn[nH]3)CC2)OCC(=O)N1C (stereo not drawn),-1.5
Cc1ccc(NC(=O)c2c(C)nc3sc(C(=O)Nc4ccc(F)cc4)c(N)c3c2-c2ccccc2Cl)c(C)c1,1.6
CCc1ccc(CNC(=O)c2cc(-c3ccc(Br)s3)nc3ccccc23)cc1,-2.1
COCCN(CCOC)S(=O)(=O)c1ccc(C(=O)Nc2sc3c(c2C(N)=O)CCCC3)cc1,1.6
COC(=O)c1c(NC(=O)Cc2coc3cc(C)ccc23)sc2c1CCC2,0.22
COc1ccc(CNC(=O)Cn2ncc3c4ccccc4n(Cc4cccc(Cl)c4)c3c2=O)cc1,24*
COc1ccc(C=CCN2CCC3(CC2)CN(CC(N)=O)CCO3)cc1,-0.2
CC(C)CCOc1ccc(Cn2c(=O)oc3ccccc32)cc1,-0.28
Cc1nn(C2CCS(=O)(=O)C2)c(C)c1NC(=O)c1ccn(C(F)F)n1 (stereo not drawn),1.3
CCOC(=O)c1c(-c2ccc(Br)cc2)csc1NC(=O)c1ccccc1F,0.75
COc1cccc(C(=O)Nc2c(C(=O)Nc3ccc(F)cc3)oc3ccccc23)c1OC,-0.13
CC(C)OC(=O)C(C)(C)Oc1ccc(C(=O)c2ccc(Cl)cc2)cc1,-1.4&-0.74
CCc1ccc2nc(-c3cccc(C(=O)N(C)C(C)C(N)=O)c3)cc(C)c2c1 (stereo not drawn),-1.2
COc1ccccc1CNC(=O)Cn1ncc2c3ccccc3n(Cc3ccccc3C)c2c1=O,-2
Cc1cccc(NC(=O)c2c(NC(=O)c3cccs3)sc3c2CCC(C)C3)c1 (stereo not drawn),-0.81
COc1ccc(C(CNC(=O)c2oc3cc(C)c(C)cc3c2C)N2CCCCC2)cc1 (stereo not drawn),-0.65
Cn1c(=O)oc2cc(S(=O)(=O)N3CCC(C(=O)N4CCN(c5ccc(Cl)cc5)CC4)CC3)ccc21,-1.8
CN(C)CCCN1c2ccccc2CCc2ccc(Cl)cc21,0.34
COc1ccc(Nc2ncc(C(=O)Nc3cc(Cl)c(OC)cc3OC)c3ccccc23)cc1,0.03
SMILES,fixLJ activator
Cn1c(Cn2cccn2)nnc1C1CC(NC(=O)C2CCC(O)CC2)C1 (stereo not drawn),0.11
COC(=O)c1cc(OCC2CCC2)cc(C(=O)NCC(C)(C)O)c1,-0.44
CCN(Cc1ccccc1)S(=O)(=O)c1cc(Br)cc2c1N(C(=O)C1CC1)CC2,0.05
Cc1noc(/C=C/c2ccco2)c1S(=O)(=O)N1CCC(C(=O)Nc2ccc(F)c(Cl)c2)CC1,-1.7
O=C(CCC1N=C2c3ccccc3N=C(SCc3ccc(Cl)cc3)N2C1=O)NC1CCCCC1 (stereo not drawn),-0.19
CCC12CN3CC(C)(CN(C1)C3c1ccc(O)cc1O)C2=O (stereo not drawn),-1.3
Cc1oc2c(cc(NS(=O)(=O)c3ccc(C(C)C)cc3)c3ccccc32)c1C(=O)O,-9.8
CCOC(=O)CSc1nnc(-c2ccc(OC)cc2)o1,-1.8
Cc1cc2ncc(C(=O)N3CC(N)C(C4CC4)C3)c(=O)n2[nH]1 (stereo not drawn),-1.5
O=C(CCC(F)(F)F)N1CC(O)C(Cc2cnccn2)C1 (stereo not drawn),0.8
Cc1cc(C)c(NC(=O)CSC2=Nc3ccccc3C3=NC(CC(=O)NCc4cccs4)C(=O)N23)c(C)c1 (stereo not drawn),-1.8
CC(=O)c1[nH]c(C)c(C(=O)N(C)Cc2cccc(O)c2)c1C,-0.21
CN(CCCC1CCCO1)c1cncc(C(=O)N2CCCC2)n1 (stereo not drawn),-3.1
COc1cncc(C(NC(=O)c2ccccc2C)C2CC(O)C2)c1 (stereo not drawn),0.92
O=C1NC(NS(=O)(=O)c2ccccc2)(C(F)(F)F)C(=O)N1CCc1ccccc1 (stereo not drawn),-0.49
O=C(NCCc1cn[nH]c1)C1(c2ccc(Cl)cc2)CCC1,-1.4
CC(C)c1cc(C(=O)N(C)Cc2noc(C3CCC3)n2)nc(N)n1,-0.93
Cc1nn(CC(=O)N(C)C2CCSCC2)c(=O)n1CCc1ccccc1,0.13
COc1ccc(NC(=O)c2cc(=O)c3cc(C)cc(C)c3o2)cc1,-1.4
CCN(CC)Cc1cnc2c(C(=O)N(CC)CC)cnn2c1,-0.31
CCc1nccn1CCC(=O)NCC1CCCN(S(=O)(=O)N2CCCC2)C1 (stereo not drawn),0.05
Cc1ccc(NC(=O)Cc2coc3c(C)c(C)ccc23)c(C)c1,-0.97
Cc1cnc(C(C)NC(=O)c2ccc(S(N)(=O)=O)cc2)[nH]1 (stereo not drawn),0.19
O=C1N(Cc2ccccc2)c2ccc(Cl)cc2C1(O)c1c[nH]c2ccccc12 (stereo not drawn),-2.4
COC(=O)CSc1nc2sc3c(c2c(=O)n1-c1ccccc1C)CC(C)(C)OC3,-2.1
SMILES,fixLJ activator
Cc1cc2c(OCC(CNC(C)(C)C)OC(=O)c3ccccc3)cccc2[nH]1 (stereo not drawn),-0.96
CCN1CCN(CCCNC(=O)Cn2nc(C)n3c(cc4cc(C)ccc43)c2=O)CC1,-0.47
COC(=O)C1=C(C)NC(=O)C1(NC(=O)c1cc(OC)c(OC)c(OC)c1)C(F)(F)F (stereo not drawn),-3.3
CCCOc1ccc(-c2nc(N3CCC(C)CC3)c3ccccc3n2)cc1,0.08
O=C(Nc1ccc2oc(-c3cccnc3)nc2c1)c1cccc(Br)c1,-0.82
O=C(NCc1nc(C2CCCCC2)no1)c1ncccc1O,-0.07
CC(C)c1ccc(CCCC(=O)N2CC(O)C(Cc3cnccn3)C2)cc1 (stereo not drawn),-1.4
COc1ccc(C(=O)n2nc(-c3ccc(Cl)cc3)nc2NCc2ccco2)cc1,-0.28
CCC(C(=O)NCc1nc(-c2ccncc2)n[nH]1)n1cccn1 (stereo not drawn),-4.2
COC(=O)c1c(NC(=O)COc2ccc(Cl)cc2C)sc2c1CCCCC2,-0.51
COc1ccc(-c2noc(N(c3cccc(Cl)c3)c3nc(-c4ccc(OC)c(OC)c4)no3)n2)cc1OC,-2.4
O=C(c1cc(=O)[nH]c(=O)[nH]1)N1CCc2onc(-c3ccccc3F)c2C1,0
CCCn1c(SCc2nc(-c3ccc(OC)c(OC)c3)no2)nnc1-c1ccccc1,-0.76
CC(=O)Nc1ccc(S(=O)(=O)NCc2ccc(C(=O)NCc3ccc(Cl)cc3)cc2)cc1,-0.89
COc1cccc(CNCCSc2nnnn2C)c1OCc1ccccc1Cl,1.9
O=C(NCCn1cc(SCc2ccccc2Cl)c2ccccc21)c1cccs1,1.5
Cc1nc2c(-c3ccccc3)c(C)nn2c(C)c1CCC(=O)NCCc1ccccc1,-0.95
CCNC(=O)N1CCC2(CC1)OCCc1c2[nH]c2ccccc12,-2.8
COc1cccc(-c2cc(C(F)(F)F)n3ncc(C(=O)OC(C)C)c3n2)c1,-1.2
CCCCNC(=O)CCCn1c(=O)c2ccccc2n(CC(=O)Nc2ccccc2OCC)c1=O,-0.53
Cc1ccc(Cn2nnc(C(=O)Nc3ccc(F)c(F)c3)c2N)cc1,-0.7
Cc1n[nH]nc1C(=O)N1CCC(N2CC(C)OC(C)C2)CC1 (stereo not drawn),0.84
COc1ccc(-c2cc(C(F)(F)F)n3nc(C(=O)Nc4cc(C)ccc4C)cc3n2)cc1,-0.22
CCOC(=O)c1c(-c2ccc(OC)cc2)oc2ccc(OCc3ccc(C(=O)OC)cc3)cc12,-0.77
COC(=O)Cn1c(=O)c2cccn2c2ccc(F)cc21,-1.3
SMILES,fixLJ activator
CCOC(=O)N1CCC(NC(=O)c2coc(CN3CCOCC3)c2)CC1,0.57
CCCCn1c(=N)c(S(=O)(=O)c2ccc(Cl)cc2)cc2c(=O)n3cccc(C)c3nc21,-0.68
COc1ccc(NS(=O)(=O)c2c(C)nc3scc(C)n3c2=O)cc1,-1.5
CCOC(=O)c1c(-c2ccc(C)cc2)csc1NC(=O)c1cc(=O)c2cc(Cl)ccc2o1,0.96
O=C(CCC1CCCN2CCCC[C@@H]12)NCc1nc(-c2cnccn2)n[nH]1 (stereo partly drawn),-0.06
O=C(COc1ccc(Br)cc1)Nc1ccc(C(=O)OC2CCCCC2)cc1,-0.14
CC(=O)NCCC(=O)N1CCC2(CC1)OCCc1c2[nH]c2ccccc12,-0.99
O=C(COc1ccccc1O)NC1CCCc2nc(-c3cccnc3)ncc21 (stereo not drawn),-2.6
Cc1ccc2oc(-c3ccc(C)c(NC(=O)c4ccc(-c5ccccc5[N+](=O)[O-])o4)c3)nc2c1,-0.76
CCOCCCNC(=O)N(C)Cc1cc(-c2cccs2)n[nH]1,0.5
CC1CCN(S(=O)(=O)c2ccc3c(c2)c(=O)c(C(=O)NCCc2ccccc2)cn3C)CC1,-0.1
Cc1ccccc1NC(=O)c1ccc(N(Cc2ccccc2)S(C)(=O)=O)cc1,-2.8
CC(c1nncn1C)n1ccnc1-c1sc(N(C)C)nc1Cl (stereo not drawn),-0.63
COc1ccc(CCNC(=O)c2cc3c(=O)oc4ccc(C)cc4c3s2)cc1OC,-1.6
CC(C)Cn1c(=O)c2ccccc2n2c(CCC(=O)NCc3ccccc3Cl)nnc12,-1.9
Cc1ccc(NC(=O)c2oc3ccccc3c2NC(=O)c2ccccc2C)cc1,1
COC(=O)CC1Oc2ccccc2N(Cc2cc(C(C)C)no2)C1=O (stereo not drawn),-1.7
CC1(C)C2CCC(CNC(=O)CCC3NC(=O)NC3=O)C1C2 (stereo not drawn),-1.6
COc1ccc(CNCCC(c2ccccc2)c2ccc3c(c2)OCO3)cc1 (stereo not drawn),-3.1
Cc1sc2ncn(CC(=O)Nc3ccc(F)cc3Cl)c(=O)c2c1S(=O)(=O)N1CCN(c2ncccn2)CC1,-0.72
COc1ccccc1C(=O)Nc1nc2nc(-c3ccccc3)cc(=O)n2[nH]1,-1.4
Cc1oc(-c2cccc(Cl)c2)nc1CN1CCCC(C(=O)N2CCN(c3ccc(F)cc3)CC2)C1 (stereo not drawn),-1.8
Cc1cc(NC(=O)c2ncoc2C(C)C)cc2sc(N)nc12,-1.7
Cn1c(=O)[nH]c(=O)c2c1nc1n2CCN1c1ccccc1,0.11
Cc1cc2ccccc2n1CCNC(=O)c1ccc(Br)cc1,-0.75
SMILES,fixLJ activator
O=C(Nc1cccc(-c2nc3ccccc3o2)c1)C(F)(F)F,-1.5
CCCc1cc(N2CCN(c3cccc(C)c3C)CC2)n2cnnc2n1,-1.4
Cc1ccc2nc(-c3cccnc3)c(Nc3ccccc3C)n2c1,0.15
COc1ccc(CNC(=O)CSCc2cnn(-c3ccccc3)c2-n2cccc2)cc1OC,-0.83
Cc1nc2nc(SCC(=O)NC(C)c3ccccc3)nn2c(C)c1Cc1c(F)cccc1Cl (stereo not drawn),-1.2
O=C(CCS(=O)(=O)c1cccs1)Nc1ccc(C(=O)Nc2cccc(Cl)c2)cc1,-0.07
COc1ccc(CNC(=O)C2CCN(S(=O)(=O)c3c(C)noc3/C=C/c3cccs3)CC2)cc1,-2.2
CCN[C@@H]1C[C@H](N)[C@@H](O[C@H]2OC(CN)=CC[C@H]2N)[C@H](O)[C@H]1OC1OC[C@](C)(O)[C@H](NC)[C@H]1O (stereo partly drawn),-1.6
CC(C(=O)N1CCc2onc(-c3ccc(Cl)cc3)c2C1)N1CCOCC1 (stereo not drawn),-1.8
O=C(Cn1cc(S(=O)(=O)c2ccccc2)c(=O)c2cc(Cl)ccc21)Nc1ccc2c(c1)OCO2,-2.5
CN(Cc1cccc(C(F)(F)F)c1)S(=O)(=O)N1CCC(C(=O)O)CC1,-1.9
Cc1ccc2nc3c(c(Nc4ccc(C)c(C)c4)c2c1)CCC3,0.38
Cc1cccc(NC(=O)C2CCCN(c3nnc(-n4c(C)ccc4C)s3)C2)c1C (stereo not drawn),-2
CCc1nn(CC(=O)N2CCN(c3cc(C)ccc3C)CC2)c(=O)c2cc3occc3n12,-1.5
